Sfp PPTase inh: qHTS Assay for Inhibitors of Bacillus subtilis Sfp phosphopantetheinyl transferase (PPTase) | Biochemical Sfp PPTase activity, qHTS | 4'-phosphopantetheinyl transferase ffp (Bacillus subtilis), Q9F4F7 | Potency, µM, for the others: max response, negative = inhibition, most hits filed as inhibitors | hit rate 3.5% among 310,000; active = well fitted inhibition curve with a large enough effect; inconclusive = small, poorly fitted or top-dose-only effect, or another doubt; inactive = no such curve, though single readings can be large or run the other way;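 note: the enzyme is Sfp with the accession as filed and its product quenches rhodamine fluorescence; potency is the fitted concentration of half-maximal effect; 0% = enzyme reaction without inhibitor and -100% = no enzyme wells; top concentration of the series not given in the record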
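Sfp 15 nM + cpd, 15 min RT; start w/ rhodamine-CoA 5 uM, BHQ-2-YbbR 12.5 uM (final); 50 mM Hepes pH 7.6, 10 mM MgCl2, 0.01% NP-40, 0.01% BSA; read 525/598 nm at 0 and 30 min.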
TRPV1 PAM: HTS Assay for Compounds that Act as Potentiators of the Vanilloid Receptor 1; Transient receptor potential cation channel subfamily V member 1 (Homo sapiens), Q8NER1; TRPV1-expressing cells, Fluo-8 calcium influx, capsaicin EC20 potentiation; host cell line not named in the record; control for the full effect not named in the record; hit rate 0.02% among 320,000; potentiation, % at 8.33 µM; active means potentiation above 80%; inconclusive means 30% to 80%; inactive means below 30%; note: 0% is about no effect
Target sequence (Q8NER1 whole entry, looked up): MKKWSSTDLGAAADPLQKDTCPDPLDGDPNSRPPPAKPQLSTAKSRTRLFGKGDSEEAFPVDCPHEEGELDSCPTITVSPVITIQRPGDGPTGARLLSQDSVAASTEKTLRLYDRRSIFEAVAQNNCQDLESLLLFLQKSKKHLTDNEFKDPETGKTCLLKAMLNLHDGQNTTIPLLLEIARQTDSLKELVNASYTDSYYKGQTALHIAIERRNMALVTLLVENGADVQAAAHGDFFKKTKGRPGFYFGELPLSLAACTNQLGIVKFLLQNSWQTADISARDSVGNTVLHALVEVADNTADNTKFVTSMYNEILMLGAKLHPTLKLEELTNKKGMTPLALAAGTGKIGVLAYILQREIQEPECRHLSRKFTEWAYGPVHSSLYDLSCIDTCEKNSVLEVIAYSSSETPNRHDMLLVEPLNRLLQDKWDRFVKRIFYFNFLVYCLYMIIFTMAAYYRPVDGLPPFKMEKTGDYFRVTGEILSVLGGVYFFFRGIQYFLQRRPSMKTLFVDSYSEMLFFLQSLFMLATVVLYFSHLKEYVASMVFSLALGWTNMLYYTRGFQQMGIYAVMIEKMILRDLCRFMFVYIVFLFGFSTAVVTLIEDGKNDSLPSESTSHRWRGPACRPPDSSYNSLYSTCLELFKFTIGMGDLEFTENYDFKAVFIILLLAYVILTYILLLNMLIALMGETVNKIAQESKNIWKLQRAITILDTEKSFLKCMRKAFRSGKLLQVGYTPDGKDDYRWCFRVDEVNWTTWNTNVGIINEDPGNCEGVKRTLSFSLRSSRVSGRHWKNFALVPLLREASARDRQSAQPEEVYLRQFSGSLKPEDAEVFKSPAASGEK
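TRPV1-expressing cells were cultured overnight at 35.5C and loaded with Fluo-8 calcium dye for 40 to 90 min at room temperature. After a 10 s baseline, compound was added and calcium influx was read kinetically for 3 min (ex 480/em 520 nm).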
ClpP mod: qHTS Assay for Activators of ClpP; ATP-dependent Clp protease proteolytic subunit (Bacillus subtilis (strain 168)), P80244; purified B. subtilis ClpP, FRET peptide cleavage, 20 min; Potency, µM (top dose mostly 57.5 µM), for the others: at the top dose activity change, negative = active; hit rate 1.9% among 340,000; active = well fitted falling curve with a large enough effect; inconclusive = small, poorly fitted or top-dose-only effect; inactive = no such curve, though single readings can be large or run the other way; note: potency is the fitted concentration of half-maximal effect; the source files actives as falling curves though it sought activators and does not explain the sign; nearly all actives have a fitted effect of over 65% in size; many hits overshoot -100%
Target sequence (P80244 whole entry, looked up): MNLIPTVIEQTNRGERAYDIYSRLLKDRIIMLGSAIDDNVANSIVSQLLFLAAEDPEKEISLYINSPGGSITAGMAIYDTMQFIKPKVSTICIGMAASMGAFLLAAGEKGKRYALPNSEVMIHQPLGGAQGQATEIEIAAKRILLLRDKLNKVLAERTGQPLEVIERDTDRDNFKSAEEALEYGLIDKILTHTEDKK
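Buffer: 100 mM Tris/HCl pH8, 100 mM KCl, 0.05% low protease BSA, 2.5% glycerol, 0.01% Tween-20. ClpP 10 microg/mL final; 20 min RT; delta FRET normalized to ADEP and DMSO controls.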
Menin-MLL FL inh: qHTS Assay for Inhibitors Targeting the Menin-MLL Interaction in MLL Related Leukemias: Competition With Fluorescein Labeled MLL-derived Peptide; Fluorescence polarization, fluorescein-MLL peptide displacement from menin; FP activity change, % at 61.4 µM; 290,000 tested, under 10 active; AID 1766, 2009; inconclusive = falling polarisation curve, or a change in total fluorescence; inactive = total fluorescence flat and polarisation flat or rising; no compound was filed as active; the % refers to the polarisation; negative = inhibition;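 note: % of control where 0% means no effect; inhibitors lower the polarisation; unlabelled MLL peptide was the positive control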
TRPML1 inh: qHTS for Inhibitors of the Human Mucolipin Transient Receptor Potential 1 (TRPML1); Mucolipin-1 (Homo sapiens), Q9GZU1; TRPML1-inducible cells, Ca2+ dye fluorescence, FDSS; hits give low values; inhibition of EC80 agonist-evoked calcium signal; activity change, negative = inhibition, % (test concentration not listed); hit rate 0.02% among 390,000; AID 624415, 2012; in the data active means activity change below about -50%; inconclusive means about -30% to -50%; inactive means above about -30%;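 note: stimulus is agonist 54-4 at its EC80 concentration; % is set by controls: 0 for no effect and ±100 for the full control effect; compound concentration not given in the record; the text of the record puts the active cut at -80%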
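TRPML1-DL cells, Tet-induced overnight (~16 h, 37 °C) at 1,500 cells/well, were loaded with Ca8 no-wash dye plus quencher for 45-90 min at room temperature. Compounds were pinned during FDSS kinetic reading; agonist 54-4 at EC80 (4 uM final) then added.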
gsp ag: qHTS for Agonist of gsp, the Etiologic Mutation Responsible for Fibrous Dysplasia/McCune-Albright Syndrome: qHTS. gsp mutant cells, cAMP HTRF, 30 min; control for the full effect not named in the record. Potency, µM (doses to about 76.9 µM), inactives show at the highest dose activation (cAMP increase), hits mostly activators. hit rate 0.13% among 340,000. AID 624287, 2012; active = well fitted activation curve with a large enough effect; inconclusive = small, poorly fitted or top-dose-only effect, or another doubt; inactive = no such curve, though single readings can be large or run the other way; cell line not stated here;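 note: phosphodiesterase inhibitor Ro 20-1724 added with compounds to block cAMP breakdown; potency is the fitted concentration of half-maximal effect; nearly all actives have a fitted effect of over 60% in size; about a fifth of the inactives were tested at one dose only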
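Cells stably selected in G418 were plated at 2000/well, grown 16-24 hr, then given compounds in DMSO with the PDE inhibitor […] (300 uM solution added) for 30 min at 37C; cAMP was read by HTRF.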
gsp antagonist: qHTS for Antagonists of gsp, the Etiologic Mutation Responsible for Fibrous Dysplasia/McCune-Albright Syndrome: qHTS; gsp-mutant cells, cAMP HTRF, 30 min; control for the full effect not named in the record; Potency, µM (highest dose often 76.9 µM), for the others: at the top dose activity change, negative = inhibition, usual class: inhibitors; hit rate 0.4% among 340,000; active = falling curve of any shape with a large fitted effect; inconclusive = falling curve, mostly with a smaller effect; inactive = flat or rising curve; cell line not stated here;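 note: intracellular cAMP measured with PDE inhibitor Ro 20-1724 present during compound exposure; potency is the fitted concentration of half-maximal effect; % is set by controls: 0 for no effect and ±100 for the full control effect; nearly all actives have a fitted effect of over 65% in size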
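Measurement of cellular cAMP by homogeneous time-resolved fluorescence following a 30 min compound exposure at 37C. The PDE inhibitor […] was present throughout; the assay buffer was DPBS with 0.05% BSA and 0.005% Tween 20.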
* hit, by the source's call; ? = inconclusive; . = not tested or not shown; [ ] = remark or other dose. The order is random; about 4.9% have a hit in one of these screens.

Fields – Sfp PPTase inh, TRPV1 PAM, ClpP mod, Menin-MLL FL inh, TRPML1 inh, gsp ag, gsp antagonist
Cc1ccc(C(=O)N/C(=C/c2ccco2)C(=O)OCN2C(=O)c3ccccc3C2=O)cc1
→ 10%, -1, 1.3%, 2.9, 29, 4%, -12%
CC(C)(C)C(=O)Nc1cccc(-c2nc3ccccc3c(=O)o2)c1
→ 31%[activator], 11, -4.7%, -3.5, -4, 0%, -16%
CCn1c(CC(=O)Nc2ccccc2F)nnc1SCC(=O)NC1CCCCC1
→ 21%, 10, ., 0.6, 6, ?, 5%
Cc1ccc(Cn2cc(S(=O)(=O)c3ccc(C(C)C)cc3)c(=O)c3cc4c(cc32)OCO4)cc1
→ ?, 6, -7.6%, 6.5, 13, -5%, -13%
Clc1cc(Br)ccc1OCCCn1ccnc1
→ -13%, -1, -3.7%, 8.3, 17, 14%[15.4 µM], 6%
NNc1nc(NCc2ccccc2)nc(N2CCOCC2)n1
→ 10%, -8, -2.8%, -1.3, 16, -3%, 0%
NCCCC[C@H]1CN=C(N)N1CCCCC1CCCCC1
→ ., ., 1.9%, ., -4, 10%, 5%
CN1CCN(C(=O)/C(=C\c2ccccc2)c2ccccc2)CC1
→ -1%, -2, -3.2%, -1.4, -24, -4%, 4%
Cc1ccc(S(=O)(=O)Nc2ccc3c(c2)CC(=O)N([C@H](C)CO)C[C@@H](C)[C@H](CN(C)S(=O)(=O)c2ccccc2)O3)cc1
→ ., ., -1.5%, ., -23, 7%, -14%
COc1cccc(N2CCN(c3ccc4nnc(CCC(=O)Nc5ncccc5C)n4n3)CC2)c1
→ 9%, 4, 0.5%, -1.4, 11, ?, 3%
NC(=O)CCN1CCN(Cc2nc(C(c3ccccc3)c3ccccc3)no2)CC1
→ -2%, 1, ., 2.6, 12, -8%, 9%
CCN(CC)S(=O)(=O)c1ccc(C(=O)NC(=S)N2CCCCC2C)cc1 (centres undefined)
→ ., ., 0.1%, ., 4, 0%, .
CCCNNC(=O)C(O)(c1ccccc1)c1ccccc1
→ 20%, -11, -5.7%, -0.4, -11, ?, 10%
Cc1cc(C)cc(NC(=O)COC(=O)CN=C2NS(=O)(=O)c3ccccc32)c1
→ 2%, 17, 0.4%, -0.8, -7, -2%, 5%
CCOc1ccc(-n2c(-c3ccccc3)c[n+]3c2CCC3)cc1
→ 21%, -2, -0.6%, -7.1, 26, -14%, -12%
CCOc1ccc(S(=O)(=O)Nc2cc(C)ccn2)c2ccccc12
→ 12%, 8, -8.2%, -2.8, 9, 1%, -11%
O=C(/C=C/N1CCOCC1)c1coc2ccccc12
→ -4%, -13, -2.7%, 1.2, 12, -103%[inhibitor], 2%
O=C(Nc1cccc(C(=O)O)c1)Nc1ccccc1Cl
→ 5%, -6, ., -0.3, 47, 13%, 2%
CCOP(=O)(OCC)c1nc(-c2ccccc2)oc1N1CCCCC1
→ 3%, -13, 4.2%, 3.7, -6, -8%, 3%
CCc1c(C)sc(NC(=O)c2cc(C)on2)c1C#N
→ -5%, -18, 1.1%, 0.2, -7, -23%, -9%
O=C(Nc1ccc([N+](=O)[O-])cc1)C(Cc1ccccc1)N1C(=O)c2cccc3cccc(c23)C1=O (centres undefined)
→ -6%, 10, ., ?, -11, -28%, -24%
C=CCOc1ccc(-c2n[nH]c(=S)o2)cc1
→ -5%, -4, 1.8%, 1.9, 29, 13%[15.4 µM], -11%
CC(C)COC(=O)Cc1c(O)c2ccccc2[nH]c1=O
→ -4%, ., 28µM*, -0.8, -3, -7%, 3%
O=C1OCc2ccc([N+](=O)[O-])cc21
→ ., ., ., ., 8, 4%, -13%
Cc1ccccc1OCCOc1cccc(/C=N/NC(=O)Cc2nnc(N)s2)c1
→ 13%, -8, 4.6%, 4.3, 14, -49%[inhibitor], -32%
O=C(COc1ccccc1)Nn1c(-c2ccccc2)nc2ccccc2c1=O
→ 15%, -5, -3.4%, 2.0, 10, 9%[15.4 µM], -3%
COc1ccc(C2CC(c3ccccc3)=NN2C(=O)COC(=O)c2cc(S(=O)(=O)N3CCOCC3)ccc2F)cc1 (centres undefined)
→ 3%, -1, -30%, ., 4, 19%, 0%
CC(C)(C)c1ccc(OCC(O)CN(CCO)CC(O)Cn2ccc3ccccc32)cc1 (centres undefined)
→ 16%, 1, -0.2%, 2.3, -17, -38%[inhibitor], 3%
Cc1ccc(CNS(=O)(=O)c2ccc3c(c2)OCCO3)cc1
→ 4%, -6, -1.5%, -3.0, 40, 2%, 1%
Cc1ccc(NC(=O)c2ccco2)cc1NC(=O)CSc1nnc(-c2cccs2)n1C
→ -2%, 7, -2.7%, -0.4, -11, -11%, 4%
CCn1c(=O)c([N+](=O)[O-])c(NCCCn2ccnc2)c2ccccc21
→ 4%, 18, ?, -0.6, 33, -1%[15.4 µM], 5%
O=C(COC(=O)c1c[nH]c2ccccc12)NC1CCCCC1
→ ., 12, -0.4%, ., 10, -5%, -5%
O=C(CN(Cc1ccccc1)S(=O)(=O)c1ccc(Br)cc1)NCC1CCCO1 (centres undefined)
→ 4%, -18, 25µM*, 1.7, -11, -6%[15.4 µM], -4%
CC(=O)Nc1ccc(S(=O)(=O)N(C)CC(=O)OCC(=O)c2ccc3c(c2)NC(=O)CO3)cc1
→ ., 5, 0.4%, ., -4, -24%, 7%
c1ccc(-c2cc3c(-n4cccc4)ncnc3o2)cc1
→ -20%, 14, 28µM*, 1.1, 8, 1%, ?
COc1cccc(CNS(=O)(=O)c2ccc3c(c2)C(C)(C)C(=O)N3C)c1
→ 3%, 10, -0.5%, ., 1, -61%[inhibitor], 6%
O=C(COC(=O)c1cccc(Cl)c1)NCc1ccccc1
→ ., ., ., ., -11, -33%[inhibitor], 7%
Cc1cccc(NC(=O)CSc2ccc(-c3cccnc3)nn2)c1
→ 6%, 0, 3.4%, ., -15, 4%[15.4 µM], -11%
CCC(=O)N1CCN(c2ccc(NC(=O)c3ccc([N+](=O)[O-])o3)cc2Cl)CC1
→ 12%, -14, ., 0.2, 19, -10%[15.4 µM], ?
O=c1c2ccccc2c(C=Nc2ccc(Cl)cn2)c(O)n1-c1cc(Cl)ccc1N1CCOCC1
→ 12%, -2, 1.9%, 2.6, 1, -41%[inhibitor], -4%
CC1SCC(NC(=O)c2ccc(Cl)cc2)CS1 (centres undefined)
→ 0%, -33, ., 1.2, -13, 2%[15.4 µM], 7%
NS(=O)(=O)c1ccc(CCNC(=O)CNC(=O)Cc2ccccc2)cc1
→ -3%, 12, ., -1.4, 3, -11%, 17%
Nc1ccc(C(=O)N/N=C/c2cn(Cc3ccc(F)cc3)c3ccccc23)cc1
→ -6%, 3, ?, -0.9, 6, 28%, 2%
COc1ccc(CN2C(=O)CSCC2=O)cc1OC
→ 3%, 20, -2.2%, 1.7, 10, -16%, 8%
COc1ccc(Cl)cc1C(=O)Nc1ccncc1
→ 5%, ?, 0.2%, 2.0, -6, 3%[15.4 µM], -5%
COC(=O)C1=C(C)Nc2ncnn2C1c1cccnc1 (centres undefined)
→ 13%, -11, -1.9%, 2.1, 14, -18%, 0%
O=S(=O)(Nc1ccccn1)c1cccc(S(=O)(=O)c2ccc(Br)cc2)c1
→ 1%, -3, ., -2.9, -4, 0%[15.4 µM], .
O=C(CSc1nnc(Cc2ccccc2)o1)c1cc(F)ccc1F
→ -1%, -7, 0.7%, 7.1, 32, -4%, 3%
O=C(N=C1SCC(=O)N1c1ccccc1Cl)c1ccccc1
→ 9%, -16, ., 3.9, 40, -2%[15.4 µM], 1%
Cc1ccc(N2C(=O)c3ccccc3C2C(=O)c2cc(C)ccc2O)cc1 (centres undefined)
→ ?, 4, 2.4%, 12, 19, -24%, -23%
COc1cc(C(=O)NC2CCCCC2)ccc1OC1CCN(C(C)=O)CC1
→ 8%, -4, ., -2.9, 0, -42%[inhibitor], ?
CCC(=O)Nc1cc(C(=O)NCC2CCCN2CC)c(OC)cc1N(C)C (centres undefined)
→ 6%, -4, 0.6%, -0.6, 2, 1%, -14%
Cc1ccc(C2(C)NC(=O)N(CC(=O)Nc3cc(C)on3)C2=O)cc1 (centres undefined)
→ 5%, -12, 0.4%, -1.8, -20, 4%, 11%
CCOC(=O)[C@H]1[C@H]2COc3ccc(OC)cc3[C@H]2N2C(=O)CN(Cc3ccccc3)C(=O)[C@@]12C
→ ., ., -1.9%, ., -11, ., -5%
Cc1ccc(/C=C/C(=O)NCCc2c[nH]c3ccccc23)o1
→ 28µM*, 8, 0.5%, 2.7, 21, -6%[15.4 µM], -11%
O=C(COc1ccc(Cl)cc1Cl)NCCSc1ccc(Cl)cc1
→ -5%, -4, 3.0%, 0.5, 4, 2%, 6%
COc1ccc(NC(=O)OCC(C)C)cc1OC
→ 16%, -26, -2.3%, -0.2, -12, -12%, 12%
CCc1ccc(-c2cc3c(=O)n(CC(=O)NCCCN4CCN(C)CC4)ncn3n2)cc1
→ 6%, 11, -27%, ., 31, ?, 5%
CC(C)(C)c1nnc(SCC(=O)Nc2ccc(N3CCCCC3)cc2)n1N
→ ., 5, -2.2%, ., 1, -2%, 1%
COCCN=c1scc(-c2ccco2)n1/N=C/c1ccc(O)c(O)c1O
→ -93%, -1, ., 15, 11, -17%[15.4 µM], ?

Screening results as filed in PubChem BioAssay.
